Assay outcomes (PubChem)
UUG fidelity – modulators of yeast start codon fidelity, primary screen, whole organism, S. cerevisiae, single point, plate reader; AID 602363, 2012; hit rate 0.13% among 350,000; activity score, % at 18.7 µM; S. cerevisiae UUG-firefly luciferase reporter, luminescence/redox ratio;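 active = replicate mean at a twofold rise or more, about +100% in these data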;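 also: firefly luciferase made from a UUG start codon reports start codon fidelity; reporter light over untreated wells divided by growth signal over untreated wells; some hits fall short of that in this replicate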
An asterisk follows results filed as active; & = joins results of further samples.

COC(=O)C[C@H]1CC[C@@H]2[C@H](COc3ccc(NC(=O)c4ccc(C(F)(F)F)cc4)cc3C(=O)N2C)O1
- UUG fidelity: 10

C[C@@H]1CN([C@@H](C)CO)C(=O)c2cccc(NC(=O)c3cnccn3)c2O[C@@H]1CN(C)Cc1ccncc1
- UUG fidelity: 6

O=C(C[C@@H]1CC[C@H]2[C@@H](COC[C@H](O)CN2Cc2ccccc2)O1)NCCCN1CCOCC1
- UUG fidelity: -22

C[C@H](CO)N1C[C@H](C)[C@H](CN(C)C(=O)NC2CCCCC2)Oc2ccc(NC(=O)Nc3ccccc3)cc2C1=O
- UUG fidelity: 0

COc1ccc(-c2ccc([C@@H]3[C@@H](CO)N4CCCCN(C(=O)c5ccc6c(c5)OCO6)C[C@H]34)cc2)cc1
- UUG fidelity: -3

O=C(C[C@@H]1CC[C@@H]2[C@H](COC[C@H](O)CN2S(=O)(=O)c2cccc(F)c2)O1)NCCCN1CCOCC1
- UUG fidelity: -5

O=C(NCCc1ccncc1)[C@@H]1[C@@H](CO)[C@@H]2Cn3c(ccc(-c4ccncc4)c3=O)[C@@H]2N1C(=O)C1CC1
- UUG fidelity: -22

O=C(C1CCCCC1)N1[C@H](CO)[C@H]2c3ccccc3N(S(=O)(=O)c3ccccc3)C[C@H]21
- UUG fidelity: 30

CO[C@H]1CN(C)C(=O)c2cc(NC(=O)NC(C)C)ccc2OC[C@H](C)N(Cc2ccccn2)C[C@@H]1C
- UUG fidelity: -14

CNC(=O)C[C@@H]1CC[C@H]2[C@@H](COc3ccc(NC(=O)Nc4cccc(C)c4)cc3C(=O)N2C)O1
- UUG fidelity: 12

CCNC(=O)C[C@@H]1CC[C@H]2[C@@H](COC[C@H](O)CN2C(=O)Nc2ccc(Cl)c(Cl)c2)O1
- UUG fidelity: -3

COc1ccccc1NC(=O)N1CCCCN2[C@H](CO)[C@H](c3ccc(C#Cc4ccccc4)cc3)[C@H]2C1
- UUG fidelity: -4

Cc1cccc(S(=O)(=O)N2C[C@H](O)COC[C@@H]3O[C@@H](CC(=O)NCc4ccc5c(c4)OCO5)CC[C@H]32)c1
- UUG fidelity: -23

CCCNC(=O)N1C[C@@H]2[C@H](c3ccccc31)[C@@H](CO)N2Cc1ccccc1F
- UUG fidelity: -20

C[C@H](CO)N1C[C@H](C)[C@H](CN(C)Cc2ccc(C(=O)O)cc2)Oc2c(NS(=O)(=O)c3cccs3)cccc2C1=O
- UUG fidelity: -4

CCN1[C@H](C(=O)Nc2ccccc2)[C@@H](CO)[C@@H]2Cn3c(ccc(-c4ccccc4)c3=O)[C@@H]21
- UUG fidelity: 4

CCCN(C[C@@H]1N[C@@H](CO)[C@H]1c1ccc(-c2cccnc2)cc1)C(C)=O
- UUG fidelity: -11&-6

O=C(NC[C@H]1N[C@H](CO)[C@@H]1c1ccc(C2=CCCC2)cc1)c1ccccc1
- UUG fidelity: -9

O=S(=O)(c1ccc(F)cc1)N1CCCCN2[C@H](CO)[C@@H](c3ccc(-c4ccccc4F)cc3)[C@@H]2C1
- UUG fidelity: 2

O=C(c1ccc(F)cc1)N1CCCCN2[C@H](C1)[C@@H](c1ccc(/C=C/c3ccccc3)cc1)[C@@H]2CO
- UUG fidelity: 5

O=C(NCC(F)(F)F)[C@@H]1[C@@H](CO)[C@@H]2Cn3c(cccc3=O)[C@H]1N2CC1CC1
- UUG fidelity: -11

O=C(C[C@@H]1CC[C@H]2[C@@H](COC[C@@H](O)CN2C(=O)c2ccccc2F)O1)N1CCOCC1
- UUG fidelity: -9

COc1cccc(CN2[C@H](CO)[C@@H]3c4ccccc4N(C(=O)C4CC4)C[C@@H]32)c1
- UUG fidelity: 4

CC(C)NC(=O)Nc1ccc2c(c1)CC(=O)N([C@@H](C)CO)C[C@H](C)[C@H](CN(C)Cc1ccc(C(F)(F)F)cc1)O2
- UUG fidelity: 21

C[C@H](CO)N1C[C@H](C)[C@H](CN(C)S(C)(=O)=O)Oc2ccc(NC(=O)Cc3cn(C)c4ccccc34)cc2CC1=O
- UUG fidelity: 18

CCCNC(=O)Nc1ccc2c(c1)C(=O)N(C)C[C@@H](OC)[C@H](C)CN(C(=O)C1CCCC1)[C@H](C)CO2
- UUG fidelity: -3

C[C@@H]1CN([C@@H](C)CO)C(=O)Cc2cc(NC(=O)Nc3ccccc3)ccc2O[C@H]1CN(C)S(C)(=O)=O
- UUG fidelity: 22

CCCNC(=O)N1[C@@H]2CN(C(=O)CC)c3ccccc3[C@@H]2[C@@H]1CO
- UUG fidelity: -8

O=C(C[C@@H]1CC[C@H]2[C@@H](COC[C@@H](O)CN2Cc2cccc(F)c2)O1)NCC1CCCCC1
- UUG fidelity: 1

COc1ccccc1NC(=O)N1CCCCN2[C@H](CO)[C@H](c3ccc(-c4ccccc4)cc3)[C@H]2C1
- UUG fidelity: 3

CCCC#Cc1ccc([C@H]2[C@@H](CO)N3CCCCN(S(C)(=O)=O)C[C@H]23)cc1
- UUG fidelity: 11

O=C(c1ccccc1)N1C[C@H]2[C@@H](c3ccccc31)[C@@H](CO)N2C(=O)c1cccc(F)c1
- UUG fidelity: 20

CCCNC(=O)Nc1ccc2c(c1)OC[C@@H](C)N(C(=O)C1CCC1)C[C@H](C)[C@@H](OC)CN(C)C2=O
- UUG fidelity: 10

CC(C)(O)C#Cc1ccc([C@H]2[C@@H](CO)N3CCCCN(C(=O)c4ccc(F)cc4)C[C@@H]23)cc1
- UUG fidelity: 26

CC(=O)N1[C@@H]2c3ccc(C4=CCCC4)c(=O)n3C[C@H]1[C@H](CO)[C@H]2C(=O)N[C@@H](C)c1ccccc1
- UUG fidelity: 20

O=C(Nc1ccccc1)N1C[C@H]2[C@@H](c3ccccc31)[C@H](CO)N2C(=O)c1ccncc1
- UUG fidelity: 25

Cc1ccc(S(=O)(=O)N(C)C[C@H]2Oc3ccc(NC(=O)c4ccncc4)cc3C(=O)N([C@H](C)CO)C[C@H]2C)cc1
- UUG fidelity: -3

O=C(c1cccc(F)c1)N1CC[C@H]2[C@H](CO)Nc3ccc(-c4ccccc4F)cc3[C@H]21
- UUG fidelity: -6

O=C(Nc1ccc(F)cc1)N1C[C@H]2[C@@H](c3ccccc31)[C@@H](CO)N2Cc1cocn1
- UUG fidelity: 35

C[C@@H]1CN([C@H](C)CO)C(=O)Cc2cc(NC(=O)C3CCCCC3)ccc2O[C@H]1CN(C)Cc1ccccc1
- UUG fidelity: 5

COc1ccc(NC(=O)Nc2ccc3c(c2)C(=O)N([C@@H](C)CO)C[C@H](C)[C@@H](CN(C)C)O3)cc1
- UUG fidelity: 3

CCC(=O)N1[C@H](CO)[C@H]2c3ccccc3N(C(=O)Nc3cccc(Cl)c3)C[C@H]21
- UUG fidelity: 1

CC(=O)N1[C@H](CO)[C@H]2c3ccccc3N(S(=O)(=O)c3ccc(F)cc3)C[C@H]21
- UUG fidelity: -12

COc1ccc(S(=O)(=O)Nc2cccc3c2O[C@@H](CN(C)Cc2ccncc2)[C@H](C)CN([C@H](C)CO)C3=O)cc1
- UUG fidelity: -2

CN1c2ccc(-c3cccc(C#N)c3)cc2[C@@H]2[C@@H](CCN2C(=O)NC2CCCCC2)[C@H]1CO
- UUG fidelity: -6

C[C@H]1CN([C@@H](C)CO)C(=O)c2cc(NC(=O)CCCCCC(=O)Nc3ccccc3N)ccc2O[C@H]1CN(C)C(=O)Nc1ccc(C(F)(F)F)cc1
- UUG fidelity: 9

COc1ccccc1NC(=O)N1C[C@H](O)COC[C@H]2O[C@H](CC(=O)NCCc3ccccc3)CC[C@@H]21
- UUG fidelity: 11

CO[C@H]1CN(C)C(=O)c2cc(NC(=O)C3CC3)ccc2OC[C@@H](C)N(C(=O)C2CCCCC2)C[C@@H]1C
- UUG fidelity: 12

Cc1ccc(S(=O)(=O)N(C)C[C@@H]2Oc3ccc(NC(=O)Cn4cnnn4)cc3C(=O)N([C@H](C)CO)C[C@H]2C)cc1
- UUG fidelity: 4

COc1cccc(S(=O)(=O)N2CCCCN3[C@H](C2)[C@@H](c2ccc(C#CC4CC4)cc2)[C@@H]3CO)c1
- UUG fidelity: 1

CNC[C@@H]1Oc2ccc(NC(=O)Nc3ccc(F)cc3)cc2C(=O)N([C@@H](C)CO)C[C@H]1C
- UUG fidelity: -10

C[C@@H]1CN([C@@H](C)CO)C(=O)Cc2cc(NC(=O)c3ccncc3)ccc2O[C@H]1CN(C)CC1CCCCC1
- UUG fidelity: -7

C[C@@H]1CN([C@H](C)CO)C(=O)c2cc(NC(=O)C3CCCCC3)ccc2O[C@H]1CN(C)C(=O)Nc1ccccc1
- UUG fidelity: 6

CN(C[C@@H]1[C@@H](c2ccccc2)[C@H](CO)N1CC1CC1)C(=O)c1cccc(F)c1
- UUG fidelity: 9

CO[C@@H]1CN(C)C(=O)c2cc(NS(C)(=O)=O)ccc2OC[C@@H](C)N(C(=O)C2CCCCC2)C[C@H]1C
- UUG fidelity: 1

O=C(C1CC1)N1CC[C@@H]2[C@H]1c1cc(C#Cc3ccccc3F)ccc1N[C@@H]2CO
- UUG fidelity: -1

Cc1ccccc1S(=O)(=O)N1CC[C@@H]2[C@H](CO)Nc3ccc(-c4ccc(F)cc4)cc3[C@@H]21
- UUG fidelity: 1

O=C(CC(F)(F)F)N1C[C@@H]2[C@H](c3ccccc31)[C@H](CO)N2C(=O)c1cccnc1
- UUG fidelity: 17

COCC(=O)N1C[C@H]2[C@@H](c3ccccc31)[C@H](CO)N2C(=O)c1ccncc1
- UUG fidelity: 9

CN1C[C@H]2[C@@H](c3ccccc31)[C@@H](CO)N2Cc1ccccc1F
- UUG fidelity: 15

CC(C)NC(=O)N1CC[C@@H]2[C@H]1c1cc(-c3cccc(F)c3)ccc1N(C)[C@@H]2CO
- UUG fidelity: -8

C[C@@H](O)C#Cc1ccc([C@@H]2[C@@H](CO)N3CCCCN(C(=O)c4ccc5c(c4)OCO5)C[C@@H]23)cc1
- UUG fidelity: 0

C[C@@H]1CN([C@@H](C)CO)C(=O)c2cc(NS(=O)(=O)c3ccc(F)cc3)ccc2O[C@H]1CN(C)CC1CC1
- UUG fidelity: 23

C[C@@H]1CN([C@@H](C)CO)C(=O)Cc2cc(NC(=O)Cn3cnnn3)ccc2O[C@@H]1CN(C)Cc1ccc(-c2ccccc2)cc1
- UUG fidelity: 8

COc1ccc(C(=O)N2C[C@H]3[C@@H](c4ccccc42)[C@H](CO)N3C(=O)c2ccc(F)cc2)cc1
- UUG fidelity: 4

CO[C@@H]1CN(C)C(=O)c2cc(NS(=O)(=O)CC(F)(F)F)ccc2OC[C@@H](C)N(C(=O)c2ccc3c(c2)OCO3)C[C@H]1C
- UUG fidelity: 9

C[C@H](CO)N1C[C@H](C)[C@H](CN(C)Cc2ccc3c(c2)OCO3)Oc2ccc(NC(=O)Cn3cnnn3)cc2C1=O
- UUG fidelity: -3

O=C(C[C@@H]1CC[C@H]2[C@@H](COC[C@@H](O)CN2S(=O)(=O)c2cccc(Cl)c2)O1)Nc1ccccc1
- UUG fidelity: 13

Cc1cccc(S(=O)(=O)N2CC[C@@H]3[C@H]2c2cc(C#Cc4cccc(F)c4)ccc2N[C@@H]3CO)c1
- UUG fidelity: -1

CO[C@@H]1CN(C)C(=O)c2ccc(NC(=O)Nc3ccccc3)cc2OC[C@H](C)NC[C@@H]1C
- UUG fidelity: 2

COCC(=O)NC[C@H]1N[C@H](CO)[C@H]1c1ccc(C2=CCCC2)cc1
- UUG fidelity: 7

CN1C(=O)c2cc(NC(=O)C3CCCC3)ccc2OC[C@@H]2O[C@@H](CC(=O)NCC(F)(F)F)CC[C@@H]21
- UUG fidelity: 15

C[C@@H]1CN([C@@H](C)CO)C(=O)Cc2cc(NC(=O)C3CC3)ccc2O[C@H]1CN(C)C(=O)Nc1ccccc1
- UUG fidelity: 19

COc1ccc(S(=O)(=O)Nc2cccc3c2O[C@H](CN(C)CC2CC2)[C@@H](C)CN([C@@H](C)CO)C3=O)cc1
- UUG fidelity: 13

O=S(=O)(c1ccccc1)N1CC[C@H]2[C@H](CO)Nc3ccc(-c4ccccc4F)cc3[C@H]21
- UUG fidelity: -15

CN(C)C(=O)c1ccc(-c2ccc3c(c2)[C@@H]2[C@@H](CCN2C(=O)c2ccccn2)[C@@H](CO)N3)cc1
- UUG fidelity: -3

COC(=O)[C@H]1[C@H](CO)[C@H]2Cn3c(ccc(-c4ccc(F)cc4)c3=O)[C@H]2N1Cc1ccccn1
- UUG fidelity: -7

O=C(c1cnccn1)N1C[C@@H]2[C@H](c3ccccc31)[C@H](CO)N2Cc1ccccc1Cl
- UUG fidelity: 14

CCN(C[C@H]1[C@H](c2ccc(-c3cccnc3)cc2)[C@H](CO)N1C(C)=O)C(C)=O
- UUG fidelity: -15

C[C@@H]1CN([C@H](C)CO)C(=O)c2cccc(NS(=O)(=O)c3cccs3)c2O[C@H]1CN(C)C(=O)NC1CCCCC1
- UUG fidelity: 37

COCC(=O)Nc1ccc2c(c1)[C@@H]1C[C@H](CC(=O)NCC3CC3)O[C@H](CO)[C@@H]1O2
- UUG fidelity: -19

CN1C(=O)c2cc(NC(=O)c3cccc(F)c3)ccc2OC[C@H]2O[C@@H](CC(=O)NCc3ccccc3Cl)CC[C@@H]21
- UUG fidelity: -2

C[C@@H]1CN([C@@H](C)CO)C(=O)c2cc(N(C)C)ccc2O[C@@H]1CN(C)S(=O)(=O)c1ccc(F)cc1
- UUG fidelity: 1

C[C@H]1CN([C@@H](C)CO)C(=O)c2cc(NC(=O)CCC(F)(F)F)ccc2O[C@H]1CN(C)Cc1ccc(-c2ccccc2)cc1
- UUG fidelity: 2

Cc1ccccc1S(=O)(=O)N1CC[C@@H]2[C@@H](CO)N(C)c3ccc(-c4ccc(F)cc4)cc3[C@@H]21
- UUG fidelity: -13

COc1cccc(CN2[C@@H](CO)[C@@H]3c4ccccc4N(C(=O)c4cccnc4)C[C@@H]32)c1
- UUG fidelity: 20

CCCNC(=O)C[C@H]1CC[C@H]2[C@@H](COC[C@H](O)CN2C(=O)c2ccccn2)O1
- UUG fidelity: -9

C[C@H]1CN([C@@H](C)CO)C(=O)c2cc(NC(=O)CCC(F)(F)F)ccc2O[C@H]1CN(C)Cc1ccc(C(=O)O)cc1
- UUG fidelity: -10

A portion of the library; the hit share may differ from the screen's.
